# Source: PubChem (several laboratories)
# ALR H2O2 inh – blocks human ALR sulfhydryl oxidase activity | inhibition, % (no concentration beside the values) | purified ALR, DTT oxidation, H2O2 HRP-luminol luminescence | 3.8% of 290,000 active;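 active = mean and each replicate at 75% or more; inconclusive = only one of the two met; inactive = neither met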;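 note: stock transfer was 7.5 nL into about 7.5 µL; 0% = neutral wells and 100% = wells with inactivated enzyme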
# Target sequence (P55789 whole entry, looked up): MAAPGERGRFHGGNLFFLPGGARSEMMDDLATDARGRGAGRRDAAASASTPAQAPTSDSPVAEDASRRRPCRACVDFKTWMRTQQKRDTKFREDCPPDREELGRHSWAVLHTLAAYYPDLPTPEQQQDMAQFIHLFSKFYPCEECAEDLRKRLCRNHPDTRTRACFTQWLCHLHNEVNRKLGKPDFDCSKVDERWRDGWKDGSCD
# LANA-H2B inh – blocks KSHV LANA binding to histone H2A/H2B. inhibition, % (concentration not given with the values). cell-free LANA-H2A/H2B peptide, fluorescence polarization. AID 2629. 0.6% of 320,000 active. Q9QR71; in the data active = inhibition mostly above about 10%, no sharp cut-off; inactive = mostly below about 6.7%;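 note: stock transfer was 7.5 nL into about 10 µL; 0% = median of vehicle wells and 100% = median of positive control wells; one replicate is shown; the record names a cut of 25% in any replicate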
# Beta apoptosis – beta cell apoptosis inhibition; INS-1E cytokine-induced death, ATP luminescence, 48 h; percent of positive-control rescue, neutral wells zero; 0.8% of 300,000 active; protection from apoptosis, % (concentration not given with the values);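 active = all replicates at 75% or more, or half of them and the mean; inconclusive = half reach 75% but not the mean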;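 note: 0% = cytokine-treated negative control wells and 100% = positive control rescue; higher means more ATP so stronger rescue from cytokine killing; wells of about 40 µL received 100 nL stock; the first replicate is given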
# Bfl-1 A1 inh – inhibitors of the anti-apoptotic protein A1, read as caspase activation; MEF A1-2A-BIM cells, Caspase-Glo 3/7 luminescence, 3 h; percent of clofoctol response, vehicle zero; caspase activation, % (test concentration not listed); 0.066% of 330,000 active;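 active = over half of replicate activation scores above 10%, or exactly half above 10 with the replicate mean above 10; inconclusive = replicate mean below 10 yet half the replicates above 10; inactive = over half of replicates below 10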;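 note: wells of about 30 µL received 50 nL stock; many hits fall short of the cut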
# rRNA inh HTS – inhibitors of bacterial rRNA selective over humanized ribosomes. E. coli WT GFP vs humanized-ribosome RFP mutants, fluorescence, 24 h; hits give low values; DMSO median 0, no signal -100. GFP signal change (wild-type ribosome), % (no concentration beside the values). 1.6% of 350,000 active. AID 720706;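 active = significant combined selectivity score with lowered wild-type GFP, culture density cut under 30%, mutant RFP and density less affected; inactive = any of these conditions unmet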; note: one replicate is shown; some compounds called inactive have numbers as strong as hits
# T cruzi inh – T. cruzi replication inhibition; AID 1885; inhibition, % (concentration not given with the values); 1.4% of 300,000 active; T. cruzi beta-gal in NIH3T3, luminescence, 90 h;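 active = mean inhibition across valid replicates above about 55%, limit read from the data; inconclusive = mean below that limit but half or more replicates reach it; inactive = mean below it, under half of replicates reach it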;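 note: signal also drops with host cell toxicity which is not excluded here; 0% = plate median of DMSO wells and 100% = zero luminescence signal; higher percent means less beta-gal luminescence so fewer parasites; stock transfer was 50 nL into about 50 µL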
# Beta2AR agonist – human beta-2 adrenergic receptor agonism by FAP. Am2.2-beta2AR cells, FAP receptor internalization, flow cytometry; reference of the scale not given here. response, % (no concentration beside the values). P07550. 0.43% of 340,000 active. AID 504454;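 active = response above a set limit, near 3 SD of response in nonfluorescent compounds, cut at about 42% in these data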;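 note: stock transfer was 100 nL into about 11 µL; a reference agonist was the positive control; negative values mostly stem from fluorescent compounds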
# Target sequence (P07550 whole entry, looked up): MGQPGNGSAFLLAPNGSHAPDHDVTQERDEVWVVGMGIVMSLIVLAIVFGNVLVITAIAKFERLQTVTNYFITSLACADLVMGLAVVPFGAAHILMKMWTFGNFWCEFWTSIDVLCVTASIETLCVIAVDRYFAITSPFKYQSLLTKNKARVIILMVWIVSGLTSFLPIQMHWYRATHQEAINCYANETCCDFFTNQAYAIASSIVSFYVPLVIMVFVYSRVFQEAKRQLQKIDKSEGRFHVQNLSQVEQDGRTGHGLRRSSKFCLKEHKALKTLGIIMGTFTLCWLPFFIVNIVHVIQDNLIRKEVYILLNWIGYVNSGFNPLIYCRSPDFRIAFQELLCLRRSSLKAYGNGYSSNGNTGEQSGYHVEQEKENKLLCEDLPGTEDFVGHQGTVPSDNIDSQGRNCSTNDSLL
# Calb FLC – affects C. albicans growth with fluconazole. 0.57% of 300,000 active. AID 1979. growth inhibition, % (concentration not given with the values). C. albicans CaCi-2 (fluconazole-resistant clinical isolate) + fluconazole, Alamar Blue growth, 48 h;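 active = most replicates above 75%; inconclusive = exactly half above 75%; inactive = most below 75%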;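 note: all wells also contain fluconazole at 8 µg/ml as a sub-toxic cotreatment; 0% = median of DMSO wells and 100% = median of geldanamycin control wells; wells of about 8 µL received 7.5 nL stock; the first replicate is given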
# rRNA inh HTS OD600 – second read-out of rRNA inh HTS, no call of its own (marks repeat the call); OD600 change, %; measured here: OD600 growth;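 optical density of the mix in the first replicate; 0 = DMSO median and -100 = no signal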
# rRNA inh HTS RFP – further read-out of rRNA inh HTS, marked with its call; RFP signal change, %; measured here: RFP humanized mutant strains;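 first replicate; 0 = DMSO median and -100 = no signal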
# Numbers without * were called inactive; ? = inconclusive; . = no result given. This is a subset (hit frequency here may not be typical).
SMILES,ALR H2O2 inh,LANA-H2B inh,Beta apoptosis,Bfl-1 A1 inh,rRNA inh HTS,rRNA inh HTS OD600,rRNA inh HTS RFP,T cruzi inh,Beta2AR agonist,Calb FLC
CC(=O)N1CCN(c2ccc(NC(=S)NC(=O)c3ccccc3)cc2)CC1,-3,1.0,-2,0.1,.,.,.,-19,-10,6
O=C(c1ccccc1F)N1CCC(N2CCCCCC2)CC1,-4,-2.8,-1,0.3,.,.,.,19,2,3
Cc1nc2ccccc2cc1C(=O)N/N=C/c1cccc([N+](=O)[O-])c1,6,1.5,3,-0.3,.,.,.,1,12,-8
O=C(NCCN1CCN(c2ccccc2)CC1)Nc1ccccc1Cl,65,1.1,1,-0.4,4,2,-3.1,22,-4,-1
Cc1ccc(-n2c(-c3ccc(Cl)cc3Cl)n[nH]c2=S)cc1,.,-1.7,-5,-0.6,-4,-5,-1.4,-3,8,21
NS(=O)(=O)c1ccc(NC(=O)c2cc(-c3cccs3)nc3ccccc23)cc1,-8,-6.4,10,-1.2,.,.,.,-6,-5,-17
O=C(Nc1nnc(-c2ccc(Cl)cc2)o1)c1ccc(N2C(=O)CCC2=O)cc1,-2,-4.9,-4,-0.7,-26,-38,-15,-14,9,-1
CN(CC(=O)Nc1ccc(F)cc1Cl)Cc1cccs1,-7,1.2,-2,0.0,-12,-22,-2.4,-2,-4,3
COc1ccc(CCNCC(C)c2ccccc2)cc1 (stereo not drawn),-6,0.1,-4,3.5,0,-7,-2.3,21,-5,-11
Cc1oc(C(C)(C)C)cc1C(=O)Nc1cccc(C(=O)O)c1,6,-6.1,4,-1.1,.,.,.,-3,3,0
Cn1c(N2CCOCC2)c(/C=N/O)c2ccccc21,60,3.3,4,0.9,.,.,.,-27,23,-40
Cc1cccc(C)c1NC(=O)NC1(C(=O)N2CCCCC2)CCCCC1,.,2.2,0,0.5,2,7,1.8,-14,0,-9
C=CCOC(=O)C1=C(C)NC(=O)NC1c1ccc(O)cc1 (stereo not drawn),7,2.0,-5,0.1,11,6,1.4,1,14,-8
COc1ccc(N=C2S/C(=C\c3ccc(C)o3)C(=O)N2CC(C)C)cc1,4,3.3,2,0.5,.,.,.,31,5,-6
O=C(CSc1nc2[nH]ncc2c(=O)[nH]1)Nc1nccs1,-5,1.3,5,0.4,18,21,18,6,.,-16
O=C(NCCc1ccccn1)c1cccc(S(=O)(=O)N2CCCCCC2)c1,-18,0.3,-1,0.0,.,.,.,-8,4,-8
N#CC1(NC(=O)COC(=O)c2ncc(Cl)c(Cl)c2Cl)CCCCC1,3,-7.8,-2,-0.5,12,9,-1.8,-20,1,3
O=C(O)c1cc(S(=O)(=O)Nc2ccc(OCc3ccccc3)cc2)ccc1Br,22,3.6,3,-0.6,2,-2,1.4,2,-2,19
COCCCNC(=O)CCn1c(=O)c2ccccc2n(CC(=O)Nc2c(C)cccc2C)c1=O,3,4.0,1,-0.3,.,.,.,-3,-3,-1
O=C(/C=C/c1ccccc1)Nc1scc(-c2ccccc2)c1C(=O)O,.,.,.,.,-44,-71,-8.0,-4,-3,-31
Cc1ccnc(NC(=O)C2(c3cccs3)CCOCC2)c1,-1,1.4,1,0.9,22,10,4.3,6,-1,-17
CCCCSc1nnc([C@@H](NC(=O)OC(C)(C)C)C(C)C)o1,-3,-0.3,.,0.0,.,.,.,13,0,-18
COc1ccc2c(=O)c3c(=O)n(-c4ccccc4)c(-c4ccc(C)cc4)nc3oc2c1,5,-5.2,-7,-0.4,7,-5,-2.4,-1,-8,-2
Cc1ccc(NC(=O)CSc2n[nH]c(-c3ccncc3)n2)cc1,-9,-2.8,1,-0.1,.,.,.,-11,7,11
COc1ccccc1Nc1nc(N)nc(CSC(=S)N2CCCCC2)n1,-6,1.7,-3,-0.2,-20,-11,30,-3,-18,-7

# The final two records of the section before open the next one.
SMILES,ALR H2O2 inh,LANA-H2B inh,Beta apoptosis,Bfl-1 A1 inh,rRNA inh HTS,rRNA inh HTS OD600,rRNA inh HTS RFP,T cruzi inh,Beta2AR agonist,Calb FLC
Cc1ccc(NC(=O)CSc2n[nH]c(-c3ccncc3)n2)cc1,-9,-2.8,1,-0.1,.,.,.,-11,7,11
COc1ccccc1Nc1nc(N)nc(CSC(=S)N2CCCCC2)n1,-6,1.7,-3,-0.2,-20,-11,30,-3,-18,-7
CCCN(C(=O)c1cccc(S(=O)(=O)N2CCCc3ccccc32)c1)C1CCS(=O)(=O)C1 (stereo not drawn),.,-2.9,-4,0.5,-2,-5,0.9,.,-1,.
Cc1ccc2c(c1)C(=O)N1[C@H]3c4cc(Br)ccc4OC[C@@H]3[C@H](c3ccccc3)[C@]1(C)C(=O)N2,2,-7.8,2,-0.4,-1,2,1.7,.,9,.
COc1cc(NC(=O)c2ccccc2F)ccc1NC(=O)c1cc2ccccc2o1,-11,1.2,22,14*,9,14,3.0,3,-2,-1
CCCn1c(=O)[nH]c(=O)c2c1nc(-c1ccc(C#N)cc1)n2CCOC,-1,7.2,2,0.6,-1,6,1.1,-3,-1,4
Fc1cccc(CSc2nnc3ccc(-c4ccncc4)nn23)c1,-6,0.4,-6,0.7,-15,-2,-0.3,9,8,2
CC1CC(C)CN(S(=O)(=O)c2ccc(C(=O)NCc3ccc4c(c3)OCO4)cc2)C1 (stereo not drawn),-1,-1.6,-4,0.4,.,.,.,11,6,-25
O=C(c1cc2c(s1)CCCC2)N1CCN(c2ccccc2)CC1,59,1.1,-2,0.2,-51,-74,-6.5,1,-7,18
CC(C)NC(=O)c1cc2n(n1)C(C(F)(F)F)CC(c1ccco1)N2 (stereo not drawn),-8,-3.4,-4,2.0,8,-4,-0.4,-2,4,0
Nc1c(C(=O)N2CCCC2)sc2nc3c(cc12)CCCCCC3,-5,-1.0,-3,0.3,-18,-12,-0.7,-4,-11,-1
CC1CCCCN1C(=O)c1ccc(COc2ccc([N+](=O)[O-])cc2)o1 (stereo not drawn),-2,4.9,.,0.7,4,7,-3.1,11,0,-2
Cn1ncc(Cl)c1C(=O)Nc1cccc(Cl)c1,-12,5.0,-4,0.1,.,.,.,-12,-5,-30
O=C(/C=C/c1ccc(S(=O)(=O)NCc2ccco2)cc1)NCc1ccccc1Cl,.,1.4,6,0.7,-27*,-20*,-9.8*,3,2,48
CCn1c(SCC(=O)Nc2ccc(C(C)=O)cc2)nc2c([nH]c3ccccc32)c1=O,-1,-4.9,26,?,16,20,-0.6,13,-10,.
Cc1oc(S(=O)(=O)N2CCCC2)cc1C(=O)Nc1ccc(F)cc1,-5,-0.1,2,0.0,20,2,0.4,-8,-1,7
CSc1nc(C)cc(-c2cc(C(=O)Nc3ccccc3)on2)n1,1,-2.8,-5,0.9,.,.,.,0,.,17
CC(C(=O)NCc1ccccc1)n1cc([N+](=O)[O-])cn1 (stereo not drawn),-7,-1.0,-7,-0.8,10,14,-0.1,-2,-6,-1
CCCCn1c2ccc(F)cc2c2nnc(NN)nc21,25,2.7,-6,0.4,-5,2,-2.6,-6,-10,10
Cc1ccc(-c2cc(-c3ccccc3)c3c(N)c(S(C)(=O)=O)sc3n2)cc1,62,6.5,2,0.0,.,.,.,38,2,-14
CC1(C)C2CC[C@]3(C)C(CC=C4[C@@H]5C[C@@](C)(CO)[C@@H](O)C[C@]56C[C@@H](OC6=O)[C@]43C)[C@@]2(C)CC[C@@H]1O (stereo partly drawn),-7,2.5,4,-0.1,.,.,.,-8,-1,-4
CC1CCC/C(=N/NC(=O)c2ccccc2-n2cccc2)C1 (stereo not drawn),8,-5.1,-3,-0.8,6,5,-5.7,-19,-6,-1
Cc1cc(C)c(C#N)c(Oc2ccccc2)n1,1,0.0,-4,0.3,.,.,.,-10,-10,-1
Cc1ccccc1NC(=O)c1ccc(N/N=C/c2ccccc2O)c([N+](=O)[O-])c1,-1,-5.1,11,2.2,.,.,.,14,-5,-4
CCN1C2=NCCCN2c2cc(C)c(C)cc21,-1,-0.6,-19,-0.1,.,.,.,3,7,6
CN(c1nc2ccccc2n2c(-c3ccco3)nnc12)S(=O)(=O)c1ccccc1,0,-1.3,-8,-0.3,.,.,.,8,5,13
O=C1CCCc2nc(N3CCN(c4ccccc4)CC3)ncc21,-24,1.8,3,1.6,.,.,.,-15,-1,-4
# (listing goes on)
SMILES,ALR H2O2 inh,LANA-H2B inh,Beta apoptosis,Bfl-1 A1 inh,rRNA inh HTS,rRNA inh HTS OD600,rRNA inh HTS RFP,T cruzi inh,Beta2AR agonist,Calb FLC
C=CCN(CC=C)C(=O)C1CCC(C(=O)N(CC=C)CC=C)CC1 (stereo not drawn),.,6.5,1,-0.1,.,.,.,-10,-4,12
Cc1cc(C)c2sc(N(CCCN(C)C)C(=O)c3ccc(S(=O)(=O)N4CCCc5ccccc54)cc3)nc2c1,-17,-0.4,.,0.4,-57,-70,-20,60*,33,2
Cc1cc(C)nc(/N=C(\N)N2CCCCC2)n1,-8,7.8,0,0.5,19,15,4.4,-11,1,?
CC(NC(=O)CCn1c(=S)[nH]c2ccsc2c1=O)c1ccccc1 (stereo not drawn),95*,-3.4,-1,-0.4,-10,-13,4.2,-7,8,1
Cc1cc(C(=O)CSc2nc(N)cc(N)n2)c(C)n1CC1CCCO1 (stereo not drawn),4,0.7,-2,0.5,7,7,1.7,.,5,.
CCOC(=O)Cc1csc(NS(=O)(=O)c2ccc(F)cc2)n1,-4,4.2,3,0.5,.,.,.,-25,3,-3
COc1ccc(C(=O)NC2CCSc3ccccc32)cc1F (stereo not drawn),-18,1.0,-4,-0.8,12,18,0.2,6,9,8
CCN(CC)C(=O)c1nn(-c2ccccc2)c2c1C1CCC2(C)C1(C)C (stereo not drawn),-13,-0.4,-9,-0.4,-52,-66,1.4,10,-9,1
Cc1ccccc1C(=O)Nc1cccc(C(=O)N/N=C/c2cc(Cl)cc([N+](=O)[O-])c2O)c1,2,0.1,101*,-0.6,-8,-1,-1.7,40,6,4
C[C@@]12C(=O)N(c3cccc(Br)c3)C(=O)N1[C@H](c1ccc(Cl)cc1)[C@@H]1C(=O)N(C3CCCCC3)C(=O)[C@@H]12,-1,-2.6,.,0.6,4,9,-3.8,47,14,6
CCc1cc2ccccc2nc1SCC(=O)Nc1cc(C)on1,-6,-1.4,.,0.2,.,.,.,-6,5,-2
CCOC(=O)N1CCN(Cc2c(F)cccc2F)CC1,1,-6.5,-1,0.4,.,.,.,-2,51*,-1
CC1(N(O)C=C2C=CC(=O)C=C2)CCCCC1=O (stereo not drawn),99*,2.2,-4,-0.9,9,7,-2.7,-1,-8,1
Cc1cccc(NC(=O)CSCC(=O)N2CCN(Cc3ccc4c(c3)OCO4)CC2)c1,-3,-0.1,-7,-1.0,-3,-6,1.3,-8,3,0
C/C(=N/NC(=O)c1ccccc1)c1ccc(NC(=O)C(F)(F)F)cc1,.,-4.0,-12,0.0,12,32,1.1,-25,6,4
Cc1ccc(C(C)C)c(OCc2nnc3n2CCCCC3)c1,1,-0.3,.,-0.2,.,.,.,-4,-1,6
Cc1cccc(-c2nnc(SC(C)C(=O)N3CCOCC3)o2)c1 (stereo not drawn),-1,0.6,-4,0.4,-1,1,-5.2,-5,-7,1
CCCCCCCCc1nnc(NC(=O)c2ccco2)s1,-3,0.9,5,1.5,-18,4,12,20,-10,23
